Menin MLL FP FL: menin-MLL binding inhibition, fluorescein peptide; Fluorescence polarization, fluorescein-MLL peptide displacement from menin; FP activity change, % at 61.4 µM; 290,000 tested, under 10 active; inconclusive = falling polarisation curve, or a change in total fluorescence; inactive = total fluorescence flat and polarisation flat or rising; no compound was filed as active; the % refers to the polarisation; negative = inhibition;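 note: % of control where 0% means no effect; inhibitors lower the polarisation; unlabelled MLL peptide was the positive control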
Sfp PPTase inh: blocks B. subtilis Sfp PPTase activity | Q9F4F7 | Biochemical Sfp PPTase activity, qHTS | Potency, µM, without a hit: max response, negative = inhibition, actives largely listed as inhibitors | hit rate 3.5% among 310,000; active = well fitted inhibition curve with a large enough effect; inconclusive = small, poorly fitted or top-dose-only effect, or another doubt; inactive = no such curve, though single readings can be large or run the other way;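 note: the enzyme is Sfp with the accession as filed and its product quenches rhodamine fluorescence; potency is the fitted concentration of half-maximal effect; 0% = enzyme reaction without inhibitor and -100% = no enzyme wells; top concentration of the series not given in the record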
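Compounds were incubated with enzyme (final 15 nM) for 15 min at room temperature before substrate addition started the reaction. Fluorescence at 525 nm excitation, 598 nm emission was recorded immediately and after 30 minutes.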
PINK1 modulator: changes PINK1 expression. PINK1 immunofluorescence, high-content cytometry, 24 h. Potency, µM (titrated, usually from 76.6 µM), for inactives: top-dose activation (PINK1 increase), actives largely listed as activators. hit rate 0.2% among 410,000. AID 624263; active = well fitted activation curve with a large enough effect; inconclusive = small, poorly fitted or top-dose-only effect; inactive = flat fitted curve, though single readings scatter; cell line not stated here;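 note: potency is the fitted concentration of half-maximal effect; % of control where 0% means no effect; nearly all actives have a fitted effect of over 65% in size; a mitochondrial uncoupler was the plate control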
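PINK1 protein, normally rapidly degraded, was detected by immunofluorescence after 24 hour compound treatment of a stable cell line. Titration data (5 concentrations) came from laser-scanning cytometry, with CCCP-treated wells as controls.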
gsp antagonist: gsp mutant antagonism; gsp-mutant cells, cAMP HTRF, 30 min; control for the full effect not named in the record; Potency, µM (series often up to 76.9 µM), inactives show at the highest dose activity change, negative = inhibition, usual class: inhibitors; hit rate 0.4% among 340,000; active = falling curve of any shape with a large fitted effect; inconclusive = falling curve, mostly with a smaller effect; inactive = flat or rising curve; cell line not stated here;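 note: intracellular cAMP measured with PDE inhibitor Ro 20-1724 present during compound exposure; potency is the fitted concentration of half-maximal effect; % is set by controls: 0 for no effect and ±100 for the full control effect; nearly all actives have a fitted effect of over 65% in size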
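G418-selected cells were plated in DMEM/10% FBS for 16-24 h at 37C, then treated with compounds plus the PDE inhibitor […] (300 uM solution added) for 30 min at 37C. Intracellular cAMP was measured by HTRF after 30 min lysis at room temperature.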
D2 agonist: agonists of human D2 dopamine receptor (beta-arrestin) | P14416 | DiscoveRx PathHunter D2 beta-arrestin, luminescence, 90 min; 100% = 57 uM dopamine signal | activation, % (test concentration not listed) | hit rate 0.084% among 360,000; in the data active = activation above about 40%; inconclusive = about 15% to 40%; inactive = below about 15%; note: compound concentration not given in the record; the text of the record calls up to 30% inactive
Target sequence (P14416 whole entry, looked up): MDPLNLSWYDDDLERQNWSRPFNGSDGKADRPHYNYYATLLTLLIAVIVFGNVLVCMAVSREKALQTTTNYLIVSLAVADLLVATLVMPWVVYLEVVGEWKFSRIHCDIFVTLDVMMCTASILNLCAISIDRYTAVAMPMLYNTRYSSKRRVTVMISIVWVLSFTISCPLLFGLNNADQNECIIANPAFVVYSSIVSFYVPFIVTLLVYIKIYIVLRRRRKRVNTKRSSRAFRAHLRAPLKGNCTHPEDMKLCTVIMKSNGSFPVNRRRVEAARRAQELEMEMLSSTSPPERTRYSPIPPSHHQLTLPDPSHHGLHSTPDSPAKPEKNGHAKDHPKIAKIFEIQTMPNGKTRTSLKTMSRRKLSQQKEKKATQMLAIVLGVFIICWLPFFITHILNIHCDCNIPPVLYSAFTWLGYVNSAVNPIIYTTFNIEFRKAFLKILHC
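DiscoveRx PathHunter D2 beta-arrestin cells (2,100/well) attached overnight, then compound-stimulated 90 min at 37 C in HBSS/10 mM HEPES/0.1% Tween-20 buffer; beta-galactosidase complementation read by luminescence after 1 h at ambient temperature. Dopamine 57 uM final (EC100) as control.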
ClpP mod: qHTS Assay for Activators of ClpP | ATP-dependent Clp protease proteolytic subunit (Bacillus subtilis (strain 168)), P80244 | purified B. subtilis ClpP, FRET peptide cleavage, 20 min | Potency, µM (top dose mostly 57.5 µM), for the others: at the top dose activity change, negative = active | hit rate 1.9% among 340,000 | AID 651965, 2013; active = well fitted falling curve with a large enough effect; inconclusive = small, poorly fitted or top-dose-only effect; inactive = no such curve, though single readings can be large or run the other way; note: potency is the fitted concentration of half-maximal effect; the source files actives as falling curves though it sought activators and does not explain the sign; nearly all actives have a fitted effect of over 65% in size; many hits overshoot -100%
Target sequence (P80244 whole entry, looked up): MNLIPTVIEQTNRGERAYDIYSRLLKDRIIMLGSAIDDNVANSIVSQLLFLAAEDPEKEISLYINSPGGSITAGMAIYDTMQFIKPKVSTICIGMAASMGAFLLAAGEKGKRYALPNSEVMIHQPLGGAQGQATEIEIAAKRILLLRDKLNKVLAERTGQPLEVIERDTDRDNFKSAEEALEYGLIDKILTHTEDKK
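ClpP 10 microg/mL final, pH 8 Tris/KCl buffer with BSA, glycerol, Tween-20; compound pinned in; FRET-FV substrate; RT 20 min; Ex320/Em430; ΔFRET vs ADEP 5.8 microM, DMSO, no enzyme.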
gsp ag: activates gsp, the McCune-Albright syndrome mutation; gsp mutant cells, cAMP HTRF, 30 min; control for the full effect not named in the record; Potency, µM (series often up to 76.9 µM), for the others: top-dose activation (cAMP increase), hits mostly activators; hit rate 0.13% among 340,000; AID 624287; active = well fitted activation curve with a large enough effect; inconclusive = small, poorly fitted or top-dose-only effect, or another doubt; inactive = no such curve, though single readings can be large or run the other way; cell line not stated here;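 note: phosphodiesterase inhibitor Ro 20-1724 added with compounds to block cAMP breakdown; potency is the fitted concentration of half-maximal effect; nearly all actives have a fitted effect of over 60% in size; about a fifth of the inactives were tested at one dose only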
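Cells in DMEM/10% FBS with G418 were pretreated with compounds in DMSO plus […] (300 uM stock) for 30 min at 37C. cAMP was measured by HTRF (cAMP-d2 plus anti-cAMP antibody-K) after 30 min at room temperature.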
* = called active by the depositor; u = inconclusive; x = not tested or not shown; [ ] = remark or other dose.

mol | Menin MLL FP FL | Sfp PPTase inh | PINK1 modulator | gsp antagonist | D2 agonist | ClpP mod | gsp ag
CSc1ccccc1C(=O)N(CC1CCCO1)c1c(N)n(Cc2ccccc2)c(=O)[nH]c1=O (stereo unspecified) | x | x | -1.7% | 6.5% | 0.7 | -4.5% | 3.0%
COc1ccc(/C=N\NC(=O)c2cc(OCC(F)(F)F)ccc2OCC(F)(F)F)cc1 | 0.4 | 13.0% | 7.4% | 9.4% | 0.9 | -2.8% | 5.8%
Cc1ccc(NC(=O)c2cc(-c3ccccc3)nn2-c2ccccc2)cc1 | 12.7 | 1.4% | -0.8% | -14.0% | -3.8 | u | -30.6%[inhibitor]
N=c1c(S(=O)(=O)c2ccccc2)cc2c(=O)n3ccccc3nc2n1C1CCCCC1 | x | x | 6.3% | -4.2% | -2.0 | x | 18.6%[15.4 µM]
COc1cc(C(=O)OC2CSCC2NC(=O)c2ccccc2)cc(OC)c1OC (stereo unspecified) | -6.9 | 9.1% | 6.6% | -5.1% | -2.3 | -1.7% | -3.2%
N#Cc1nc(-c2ccc(F)cc2)oc1N1CCCCC1 | 1.5 | -17.5% | 1.4% | -10.5% | 0.6 | 3.3% | u
COc1ccccc1CNC(=O)/C=C/c1ccc(S(=O)(=O)NCc2ccco2)cc1 | -0.8 | u | -0.1% | u | 5.9 | -0.4% | 11.4%[15.4 µM]
COc1ccc2cc(C(=O)Nc3ccc(O)cc3)sc(=O)c2c1OC | 11.3 | -0.8% | 10.7% | -35.8% | -4.1 | 2.2% | -19.9%
O=C(NCc1ccccn1)c1cccn1-c1ncc(C(F)(F)F)cc1Cl | -1.0 | 14.4% | 0.1% | x | -3.3 | x | 5.8%[15.4 µM]
S=C(NCc1cccc(Cl)c1)NC1CCCCC1 | 3.9 | 19.4% | 1.6% | -8.2% | 0.6 | -2.3% | -0.6%
Nc1c(C(=O)NCCN2CCOCC2)c2nc3ccccc3nc2n1-c1ccccc1 | -0.4 | u | 2.7%[38.3 µM] | -15.8% | 0.7 | 11.2µM* | -9.8%
O=S(=O)(NCCc1ccccc1)c1ccc(S(=O)(=O)N2CCCCC2)cc1 | 1.5 | -0.1% | 3.6%[38.3 µM] | -3.3% | 1.6 | 1.2% | -40.2%[inhibitor]
CC(NC(=O)c1ccc(N2CCNCC2)c([N+](=O)[O-])c1)C12CC3CC(CC(C3)C1)C2 (stereo unspecified) | -6.8 | 23.8% | -2.5% | 4.4% | -2.4 | x | -15.2%[15.4 µM]
COc1ccc(C2c3c(ncn(CCCO)c3=N)Oc3ccc4ccccc4c32)cc1OC (stereo unspecified) | 6.7 | -0.3% | -2.1% | 8.6% | -1.9 | x | -13.6%[15.4 µM]
CCOC(=O)C1CCN(c2ncnc3c2c(-c2ccccc2)cn3-c2ccccc2)CC1 | 0.7 | 2.9% | 2.0% | -18.7% | -2.2 | x | u
O=C(Cc1cccs1)NNC(=S)NCc1ccc(Cl)cc1 | 2.1 | 15.0% | -1.2% | -0.3% | -2.8 | 0.7% | -26.2%
O=C(Nc1ccc(N2CCN(C(=O)c3ccco3)CC2)cc1)c1cccnc1Cl | 2.0 | 12.5% | 0.6% | -11.9% | -0.9 | 1.1% | -20.7%
CN1CCN(C(=O)/C(=C/c2cccnc2)NC(=O)c2cccc(Br)c2)CC1 | -9.8 | 15.4% | 2.9% | 12.9% | -3.7 | -0.7% | -6.4%[15.4 µM]
Cc1[nH]c(=O)[nH]c(=O)c1S(=O)(=O)N1CCN(c2ccccc2)CC1 | 0.4 | 30.2%[activator] | -0.1% | -1.2% | -3.1 | 0.0% | 0.2%
COc1ccccc1NC(=O)C(Cc1ccc(Cl)cc1)c1nn[nH]n1 (stereo unspecified) | -0.3 | 3.8% | 1.9%[38.3 µM] | u | -0.9 | 0.7% | u
O=C(Nc1cccc2ccccc12)c1ccc([N+](=O)[O-])o1 | -1.9 | 2.4% | -1.3% | 0.6% | 2.0 | 1.5% | 8.8%
c1ccc(SCCN2CCN(c3ccccc3)CC2)cc1 | 3.2 | 4.3% | 0.4% | 17.5% | 4.6 | -3.0% | 24.5%
CCCCNC(=O)CSc1nc2cc(OC)c(OC)cc2c(=O)n1Cc1ccc(OC)cc1 | 2.0 | 4.4% | 4.0%[38.3 µM] | 4.5% | -4.0 | -0.8% | u
Cc1cc(C)c(C#N)c(Nc2cccc(C)c2C)n1 | 5.2 | 4.5% | 5.9% | -7.6% | 1.4 | -8.1% | -4.9%
CCO[C@@H]1OC(C(=O)O)=C[C@H](c2ccc3c(c2)OCO3)[C@H]1CCCO | 1.3 | -8.9% | 0.6% | 6.5% | 0.0 | -0.8% | -8.5%
Cc1nc2ccccn2c1C(=O)N/N=C/c1ccc([N+](=O)[O-])cc1 | 2.5 | 6.6% | -0.3% | 8.7% | 6.1 | x | 18.5%
CCC(C(=O)Nc1ccccc1F)n1nc(C)c2c(C)n(-c3ccccc3)nc2c1=O (stereo unspecified) | 1.5 | 2.4% | 3.8% | -16.6% | 5.3 | -1.1% | 19.6%
COc1ccc(-c2oc(NC(=O)c3ccc(C)cc3)c(C#N)c2-c2ccc(OC)cc2)cc1 | 0.6 | 19.9% | -2.3% | -10.5% | -3.9 | -5.8% | -119.5%[inhibitor]
COc1ccc(NS(=O)(=O)c2cccc(C(=O)O)c2)cc1S(=O)(=O)N1CCOCC1 | x | x | 2.9% | 3.1% | -2.1 | -2.1% | -21.1%
O=C(Cn1c(NCCO)nc2ccccc21)c1cccs1 | 3.0 | 2.4% | 1.9% | 8.1% | 4.3 | 0.9% | -0.5%

One compound at a time (already shown). Screens in order: Menin MLL FP FL	Sfp PPTase inh	PINK1 modulator	gsp antagonist	D2 agonist	ClpP mod	gsp ag
COc1ccc(/C=N\NC(=O)c2cc(OCC(F)(F)F)ccc2OCC(F)(F)F)cc1 in the list: 0.4	13.0%	7.4%	9.4%	0.9	-2.8%	5.8%
Cc1ccc(NC(=O)c2cc(-c3ccccc3)nn2-c2ccccc2)cc1 in the list: 12.7	1.4%	-0.8%	-14.0%	-3.8	u	-30.6%[inhibitor]
CCOC(=O)C1CCN(c2ncnc3c2c(-c2ccccc2)cn3-c2ccccc2)CC1 in the list: 0.7	2.9%	2.0%	-18.7%	-2.2	x	u

The list goes on.
Screens in order: Menin MLL FP FL | Sfp PPTase inh | PINK1 modulator | gsp antagonist | D2 agonist | ClpP mod | gsp ag
Clc1ccc(-c2nc(Cc3ccccc3)no2)cc1
→ -2.7 | 3.2% | 0.3% | 6.3% | -3.7 | -4.0% | 0.6%
O=C(CSc1nc(C2CC2)nc2sc3c(c12)CCCC3)NCc1ccco1
→ 2.3 | -3.8% | 15.8%[38.3 µM] | 4.0% | 3.3 | -2.9% | 4.5%
CC(C)CN1C(=O)C(=O)N(CC(=O)N2c3ccccc3NC(=O)CC2C)C1=O (stereo unspecified)
→ x | x | -0.5% | 10.7% | -3.7 | -0.1% | 0.5%
O=C(Nc1ccc2c(c1)OCCO2)c1ccc(Cl)c(Cl)c1
→ 0.0 | -4.9% | 4.2% | -10.4% | 4.6 | x | -17.3%
Cc1nnc(SCC(=O)Nc2ccc(Oc3ccccc3)cc2)n1N
→ 4.0 | -1.2% | 1.4% | 14.0% | -1.8 | -2.2% | -4.9%
O=C(NC(=S)Nc1ccc(N2CCOCC2)cc1)c1cccc(Cl)c1
→ 5.4 | -2.8% | 2.8% | -14.2% | -1.0 | -1.5% | -41.0%[inhibitor]
CN1CCN(CC(=O)n2c3c(c4ccccc42)CCCC3)CC1
→ 3.7 | -1.4% | -2.2%[38.3 µM] | 8.7% | 2.2 | -2.8% | -1.6%
O=C(Cn1c2c(sc1=O)C1c3ccccc3OCC1CS2)Nc1ccc(Cl)cc1 (stereo unspecified)
→ 14.7 | 0.3% | 2.5% | 5.6% | -1.7 | 1.2% | -24.7%
Cc1noc(C)c1S(=O)(=O)Nc1ccccc1Oc1ccccc1
→ -1.2 | 0.7% | 0.7% | 2.8% | 2.6 | x | 17.5%[15.4 µM]
COc1ccc(NC(=O)CCS(=O)(=O)c2ccc3c(c2)oc(=O)n3C)cc1
→ x | 9.0% | -0.7% | 28.6% | -1.0 | -0.2% | -17.4%
CC(C)(O)C#Cc1ccc(CN2CCC(CO)(CCc3ccccc3)CC2)cc1
→ -0.3 | 12.1% | 1.2% | 15.9% | -6.6 | -1.0% | 18.4%
O=C(Nc1ccccc1C(F)(F)F)c1cc(-c2ccccc2O)on1
→ 1.7 | 13.6% | 6.8%[38.3 µM] | 3.1% | -1.1 | -0.6% | -17.7%
COC(=O)c1c(O)cc(=O)n2c1CCCCC2
→ -0.2 | 14.4% | 0.1% | 2.6% | 0.1 | 2.0% | 12.1%
O=C(Nc1ccc(N2CCN(C(=O)c3ccccc3F)CC2)cc1)c1ncn[nH]1
→ -2.4 | -6.0% | 1.2% | -12.6% | -4.3 | x | 5.1%[15.4 µM]
Cc1ccccc1C(=O)OCCCN=C1NS(=O)(=O)c2ccccc21
→ 2.3 | -3.1% | -0.9% | 2.5% | -1.0 | -0.9% | -43.5%[inhibitor]
COc1ccc(S(=O)(=O)N2CCCC(C(=O)N3CCN(C)CC3)C2)cc1C (stereo unspecified)
→ 6.8 | 17.0% | -1.7% | -31.2% | -0.7 | 7.1% | -8.6%
CC1=C(C(=O)Nc2ccccc2)C(c2ccncc2)C(C#N)=C(SCC(=O)Nc2ccccc2)N1 (stereo unspecified)
→ 1.7 | 0.1% | 1.5% | -3.3% | -0.2 | 1.9% | 4.2%
Cc1sc(Nc2ccc([N+](=O)[O-])cc2)nc1-c1c(C)n(C)n(-c2ccccc2)c1=O
→ 1.0 | 5.6% | -3.2% | 8.7% | -1.2 | 2.7% | -29.4%

Source: PubChem BioAssay
